NS1 inh: blocks influenza NS1 protein function. S. cerevisiae slowed by influenza A NS1, growth recovery by OD600. Potency, µM (top dose mostly 46.1 µM), without a hit: at the highest dose activity, positive = more growth. 0.4% of 270,000 active. AID 2326; further: actives are rising curves; nearly all actives have a fitted effect of over 50% in size
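Compounds were scored for reversing the slow growth caused by influenza A NS1 in S. cerevisiae, measured by optical density at 600 nm. Assay medium contained 2% galactose at pH 6.0; NS1-free yeast of the same strain were the positive control.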
Cruzain inh noDet: cruzain (T. cruzi) inhibition without detergent; Potency, µM, for inactives: max response, negative = inhibition, most hits filed as inhibitors; purified cruzain, Z-FR-AMC fluorescence, no detergent; P25779; 2.3% of 200,000 active; active means well fitted curve in the direction sought with a large enough effect; inconclusive means small, poorly fitted or top-dose-only effect, or another doubt; inactive means no such curve, though single readings can be large; an effect the other way counts as inactive or inconclusive;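 further: plate controls were enzyme without inhibitor for no effect and buffer without enzyme for full effect; nearly all actives have a fitted effect of over 40% in size; top concentration of the series not given in the record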
Target sequence (P25779 123-467 limits assumed): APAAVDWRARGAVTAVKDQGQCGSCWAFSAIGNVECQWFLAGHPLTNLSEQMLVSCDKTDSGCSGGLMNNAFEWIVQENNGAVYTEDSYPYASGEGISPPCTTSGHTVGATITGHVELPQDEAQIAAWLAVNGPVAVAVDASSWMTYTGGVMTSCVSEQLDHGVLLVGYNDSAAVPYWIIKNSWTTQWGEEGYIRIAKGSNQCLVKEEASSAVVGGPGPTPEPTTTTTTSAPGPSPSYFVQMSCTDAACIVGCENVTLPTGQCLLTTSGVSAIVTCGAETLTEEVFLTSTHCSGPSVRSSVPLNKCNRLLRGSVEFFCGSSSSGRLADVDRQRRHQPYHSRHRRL
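Detergent-free condition (0.00005% Triton X-100) in acetate buffer pH 5.5 with DTT. 1.5 nM enzyme and compound were pre-mixed 15 min, then 2 uM Z-FR-AMC substrate added; reaction progress from fluorescence change between first and third reads (60 s).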
RE007 growth inh: less growth of the S. pombe RE007 Vpr strain; S. pombe RE007 Vpr strain, BacTiter-Glo ATP luminescence, 24 h; control for the full effect not named in the record; Potency, µM (titrated, usually from 92.2 µM), for the others: at the top dose activity change, negative = less growth; 0.21% of 360,000 active; AID 651644; active = well fitted falling curve with a large enough effect; inconclusive = small, poorly fitted or top-dose-only effect; inactive = no such curve, though single readings can be large or run the other way;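 further: on the % scale 0 is the no-effect control and ±100 the full control effect; nearly all actives have a fitted effect of over 50% in size; the assay follows cell death caused by Vpr and the record does not say whether a fall means rescue or toxicity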
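Fission yeast RE007 carrying one integrated HIV-1 vpr copy, seeded at OD 0.01 in PMG+AL medium with 23 nL pinned compound. Grown 24 h at 30 degrees; viability read by BacTiter-Glo luminescence after 5 min.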
Marburg entry inh: Marburg virus entry inhibition | Marburg virus pseudotyped entry inhibition, cell reporter; control for the full effect not named in the record; about a third of the inactives were read at about 46 µM | Potency, µM (titrated, usually from 37.8 µM), inactives show at the top dose activity change, negative = inhibition, usual class: inhibitors | 1.8% of 300,000 active | AID 540276; active = well fitted inhibition curve with a large enough effect; inconclusive = small, poorly fitted or top-dose-only effect, or effect the other way; inactive = flat fitted curve, though single readings scatter; tested in HEK293 cells; about a fifth of its hits are not listed in these tables; further: on the % scale 0 is the no-effect control and ±100 the full control effect; luciferase read-out
LASV entry inh: inhibitors of Lassa virus binding or cell entry. Lassa virus pseudotype entry inhibition, cell reporter; control for the full effect not named in the record. Potency, µM (top dose mostly 37.9 µM), for inactives: at the top dose activity change, negative = inhibition, usual class: inhibitors. 1.2% of 300,000 active. AID 540256; active means well fitted inhibition curve with a large enough effect; inconclusive means small, poorly fitted or top-dose-only effect, or effect the other way; inactive means flat fitted curve, though single readings scatter; tested in HEK293 cells; further: on the % scale 0 is the no-effect control and ±100 the full control effect; nearly all actives have a fitted effect of over 50% in size; luciferase read-out
2A StopGo: lowers the luciferase signal of an FMDV 2A StopGo reporter; human cells with a luciferase reporter of 2A StopGo recoding; control for the full effect not named in the record; Potency, µM (series often up to 57.9 µM), without a hit: at the top dose signal change, negative = less light; 1.2% of 410,000 active; AID 1159524; active = well fitted falling curve with a large enough effect; inconclusive = small, poorly fitted or top-dose-only effect; inactive = no such curve, though single readings can be large or run the other way; tested in HEK293T cells; further: on the % scale 0 is the no-effect control and ±100 the full control effect; nearly all actives have a fitted effect of over 45% in size; luciferase light after 4 h
Cruzain Triton: inhibitors of Trypanosoma cruzi cruzain with detergent; purified cruzain, Z-FR-AMC fluorescence, 0.01% Triton; Potency, µM, for inactives: max response, negative = inhibition, usual class: inhibitors; 0.43% of 200,000 active; AID 1478; active means well fitted curve in the direction sought with a large enough effect; inconclusive means small, poorly fitted or top-dose-only effect, or another doubt; inactive means no such curve, though single readings can be large; an effect the other way counts as inactive or inconclusive;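 further: plate controls were neutral wells for no effect and buffer without enzyme for full effect; nearly all actives have a fitted effect of over 40% in size; top concentration of the series not given in the record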
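Z-FR-AMC hydrolysis (2 uM substrate) by cruzain (1.5 nM) monitored kinetically at ex 360/em 450 nm after 15 min room-temperature compound exposure; 0.01% Triton X-100, pH 5.5, 5 mM DTT.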
SARS PLP yeast: blocks SARS-CoV papain-like protease in a yeast assay; Potency, µM (doses to about 32.9 µM), for the others: top-dose activity, positive = growth rescue; 0.19% of 330,000 active; S. cerevisiae expressing SARS-CoV PLpro, growth rescue; control for the full effect not named in the record; AID 485353; further: 0% is about no effect; nearly all actives have a fitted effect of over 55% in size; growth read by luminescence after 48 h
An asterisk follows results filed as active; ? = inconclusive; . = not tested or not shown; & = joins results of further samples; [ ] = dose if it differs, or a comment. Unless noted, the call rests on the fitted dose curve; in most records, active means well fitted rising curve with a large enough effect; inconclusive means small, poorly fitted or top-dose-only effect; inactive means no such curve, though single readings can be large or run the other way. Potency means the concentration at half of the fitted maximal effect.

SMILES	NS1 inh	Cruzain inh noDet	RE007 growth inh	Marburg entry inh	LASV entry inh	2A StopGo	Cruzain Triton	SARS PLP yeast
CC(=O)c1cccc(NC(=O)c2c(C)nn(-c3ccccc3)c2Cl)c1	-10%	.	41%	2%	3%	-20%	.	-1%
N#CC1=C(N)Oc2n[nH]c(-c3ccccc3)c2C1c1cccc(OC(=O)N2CCOCC2)c1 (configuration not stated)	-59%	8%	9%	10%	5%	0%	-9.4%	0%
CCOC(=O)c1ccccc1NC(=O)C1CC(=O)N(C(C)(C)C)C1 (configuration not stated)	-2%	.	0%	.	.	5%	.	-4%
O=C(c1ccccc1)N1N=C(c2ccccc2)CC1(O)C(F)(F)F (configuration not stated)	-4%	.	-5%	.	.	-8%	.	-2%
C/C(CC(=O)NC12CC3CC(CC(C3)C1)C2)=N\NC(=O)c1ccc(C)cc1	4%	.	-13%	?	8%	-9%	.	0%
CCOC(=O)c1ccc(NC(=S)N(CCN(C)C)C(C)c2ccncc2)cc1 (configuration not stated)	-58%	.	7%	.	.	52%[activator]	.	1%
O=C(COC(=O)c1cc(S(=O)(=O)N2CCOCC2)c(Cl)cc1Cl)NCc1ccco1	.	.	1%	8%[46.1 µM]	17%[46.1 µM]	-11%	.	-2%
NC(=O)COC(=O)c1ccc(-c2ccc(O)cc2)cc1	3%	.	13%	.	.	0%	.	1%
CCOc1ccc(-c2nc3n(c(=O)c2C#N)CCS3)cc1	5%	.	4%	7%[46.1 µM]	1%	31%[activator]	.	0%
CC(C)(C)c1cnnn1-c1ccc(/C=N/Nc2ccc([N+](=O)[O-])cc2)cc1	-4%	0%	5%	3%	?	?	2.0%	?
COc1ccc(-c2nc3ccccc3n2OCC(=O)O)cc1	2%	.	?	1%[46.1 µM]	-6%	10%	.	-1%
CS(=O)(=O)NCC(c1cccnc1)N1CCN(c2ccc(F)cc2)CC1 (configuration not stated)	-6%	0%	-4%	1%	-13%	-14%	-2.0%	-13%
COc1ccc2nc(/C(C#N)=C\c3ccc(C(=O)O)cc3)[nH]c2c1	.	.	-11%	-1%[46.1 µM]	8%[46.1 µM]	3%	.	-4%
COc1ccc(CCNC(=O)C(=O)Nc2ccc3c(c2)OCO3)cc1OC	6%	.	18%	?	-2%	-3%	.	1%
COc1ccc(-c2cn(CCCOCc3ccccc3)nn2)cc1	-32%	.	-4%	.	.	-17%	.	-14%
CCC(=O)Nc1c(C)ccc2nsnc12	4%	-8%	-4%	-1%	9%	-10%	-1.5%	12%
COc1ccccc1N1CCN(C(=O)c2cccs2)CC1	-2%	.	-7%	.	.	-1%	.	2%
CCN(CC)C(=O)/C(=C/c1ccc2c(c1)OCO2)NC(=O)c1ccc(Br)cc1	-8%	2%	8%	2%	7%	86%[activator]	-19%	10%
COCCCNC(=O)CNC(=O)c1cn(-c2ccccc2OC)c(=O)c2ccccc12	.	.	-9%	11%[46.1 µM]	15%[46.1 µM]	-15%	.	0%
Cc1ccccc1C(=O)OCC(=O)NCc1ccco1	.	.	11%	8%	-4%	60%[activator]	.	-1%
CC(=O)CC(c1ccccc1)S(=O)(=O)c1ccc(C)cc1 (configuration not stated)	11%	2%	-3%	-14%	0%	-13%	0.9%	1%
COc1ccc(OC)c(NC(=O)CCN2C(=O)c3ccccc3C2=O)c1	-1%	.	8%	.	.	0%	.	1%
Cc1ccc(CNCCCSc2nc(C)cc(C)n2)cc1	-5%	.	5%	.	.	12%	.	2%
COc1ccc(-c2c[n+]3c(n2-c2ccc(C)cc2)CCCCC3)cc1	-1%	.	-16%	7.1µM*	5µM*	?	.	-1%
COCCNC(=S)N/N=C(\C)c1ccc2cc(OC)ccc2c1	-1%	-10%	-25%	?	8.2µM*	-26%	-14%	8.9µM*
COc1cc2c(cc1OC)CN(c1ccc(C(N)=O)cc1[N+](=O)[O-])CC2	16%	.	10%	21%[46.1 µM]	-25%	-20%	.	-3%
Clc1ccccc1CSc1nnc(-c2ccco2)c(-c2ccco2)n1	11%	16µM*	-15%	0%&-26%	34%[14.3 µM]	3%	25µM*	-14%
Cc1ccc(-n2ncc3c(SCC(=O)NNC(=O)c4ccco4)ncnc32)cc1	0%	.	-16%	?	15%	45%[activator]	.	0%
CCc1ccc2c(CN3CCN(S(=O)(=O)c4cccs4)CC3)cc(=O)oc2c1	13%	6%	19%	?	2.5µM*	?	-5.7%	-5%
O=P(N1CC1)(N1CC1)N1CCc2ccccc21	.	.	10%	-3%[46.1 µM]	2%[46.1 µM]	-7%	.	.

Reprinted at random: six compounds from above.
SMILES	NS1 inh	Cruzain inh noDet	RE007 growth inh	Marburg entry inh	LASV entry inh	2A StopGo	Cruzain Triton	SARS PLP yeast
COCCNC(=S)N/N=C(\C)c1ccc2cc(OC)ccc2c1	-1%	-10%	-25%	?	8.2µM*	-26%	-14%	8.9µM*
COc1ccc(-c2c[n+]3c(n2-c2ccc(C)cc2)CCCCC3)cc1	-1%	.	-16%	7.1µM*	5µM*	?	.	-1%
Cc1ccccc1C(=O)OCC(=O)NCc1ccco1	.	.	11%	8%	-4%	60%[activator]	.	-1%
Cc1ccc(-n2ncc3c(SCC(=O)NNC(=O)c4ccco4)ncnc32)cc1	0%	.	-16%	?	15%	45%[activator]	.	0%
COc1ccccc1N1CCN(C(=O)c2cccs2)CC1	-2%	.	-7%	.	.	-1%	.	2%
CCc1ccc2c(CN3CCN(S(=O)(=O)c4cccs4)CC3)cc(=O)oc2c1	13%	6%	19%	?	2.5µM*	?	-5.7%	-5%

(cont.)
SMILES	NS1 inh	Cruzain inh noDet	RE007 growth inh	Marburg entry inh	LASV entry inh	2A StopGo	Cruzain Triton	SARS PLP yeast
CC1Cc2ccccc2N1S(=O)(=O)c1cccc(C(=O)NC2CC2)c1 (configuration not stated)	-8%	11%	-4%	-25%	-17%	?	1.6%	-1%
CN(C)CCCNC(=O)c1ccccn1	-4%	2%	12%	-5%	1%	11%	2.3%	17%
CCSC1=C(C#N)C(c2cccc(OC)c2)CC(=O)N1 (configuration not stated)	-1%	?	-5%	26%	-2%	?	2.5%	4%
COc1ccccc1N1C[C@@H]2C[C@@H](c3ccco3)N3CCC[C@@]23C1=O	12%	.	-4%	-8%[46.1 µM]	-18%[46.1 µM]	-9%	.	0%
C#CCNc1nc(CC)nc2c1nnn2Cc1ccccc1F	3%	-3%	-12%	0%[46.1 µM]	-2%	?	-0.3%	1%
CN(C)C(=O)c1cc(S(=O)(=O)N(C)C)c(Cl)cc1N1CCCC1	8%	9%	8%	-18%	7%	16%	0.9%	-3%
Cc1cc(C)cc(OCC(=O)OC(C)C(=O)Nc2ccc(Cl)cn2)c1 (configuration not stated)	.	.	-1%	1%[46.1 µM]	3%	-1%	.	4%
O=C(COC(=O)Cc1ccc(Cl)cc1)Nc1ccccc1-c1ccccc1	-9%	-14%	6%	6%	19%	-12%	-8.4%	-25%
COc1ccc(NC(=O)C2CCCN(S(=O)(=O)c3cccnc3)C2)cc1OC (configuration not stated)	-1%	.	-4%	.	.	-13%	.	0%
COc1ccc(N2C(=O)C(Cl)=C(N3CCCC(C)C3)C2=O)cc1 (configuration not stated)	-6%	-4%	?	-3%	18%	15%	-6.0%	-2%
Cc1ccc(Cn2c(CN3CCC(C(=O)O)CC3)cc3ccccc32)cc1	.	2%	.	?	3%[46.1 µM]	-2%	-3.0%	.
O=C(CSC1=NCCN1)Nc1ccccc1[N+](=O)[O-]	2%	.	0%	-19%[46.1 µM]	-23%	?	.	-2%
CCOC(=O)c1c(C)[nH]c(C(=O)CSc2ccc(Cl)cc2)c1C	-5%	?	-7%	-22%	-22%	79%[activator]	4.5%	-1%
CCOc1ccc(CNC(=S)N/N=C/c2ccc(OC)c(OC)c2)cc1	8%	1%	14%	-72%	2.8µM*	8%	-7.3%	3%
Cc1noc(/C=C/N(C)C)c1S(=O)(=O)N1CCCC(C(=O)N2CCCCC2)C1 (configuration not stated)	28%	9%	5%	.	.	-22%	-6.2%	8%
O=C(COC(=O)C1CC2C=CC1C2)Nc1ccccc1F (configuration not stated)	-4%	.	0%	19%[46.1 µM]	9%	80%[activator]	.	0%
CC(C)C[C@H](NC(=O)N1CC(=O)Nc2ccccc21)C(=O)N1CCC[C@H]1C(=O)O	18%	.	-9%	.	.	-11%	.	-2%
NS(=O)(=O)c1ccc(CCNC(=O)Cc2ccc(Cl)cc2)cc1	-1%	.	0%	-5%	29%	-17%	.	1%
O=C(CCn1nnc2ccccc21)Nc1nnc(COc2ccc(F)cc2)s1	13%	-22%	-12%	23%	-2%	-5%	7.4%	8%
COc1ccc(-n2nnnc2SCC(=O)Nc2ccc3c(c2)OCCO3)cc1OC	7%	-3%	5%	-3%	?	-16%	-0.4%	0%
Clc1cccc2c3c([nH]c12)CCNC3	-2%	.	0%	-25%	-1%	-2%	.	6%
CCNC(=S)N1C2CCC1CC(NC(=O)Nc1ccc(C(=O)OCC)cc1)C2 (configuration not stated)	.	.	-14%	-29%[46.1 µM]	-21%[46.1 µM]	-7%	.	-1%
COc1ccc(N(C(=O)c2ccco2)C(C(=O)NC2CCCC2)c2ccc(N(C)C)cc2)cc1 (configuration not stated)	-8%	?	-6%	?	-1%	-4%	-1.5%	-2%
O=C(CSc1nnc2[nH]c(=O)cc(-c3ccccc3)n12)Nc1ccc(F)cc1F	.	-25%	.	.	-7%[46.1 µM]	23%	-0.3%	.
CCOC(=O)c1cnc(SCc2nc(N)nc(Nc3ccc(OC)cc3)n2)nc1N	11%	24%	-3%[3.69 µM]	4%	18%	-2%	2.0%	-3%
CC(=O)c1cccc(NC(=O)Nc2cc3sccc3n2C)c1	?	?	.	-2%	.	.	-9.1%	-5%
Cc1ccc2cc(CN(Cc3ccco3)C(=O)NC3CCCCC3)c(=O)[nH]c2c1C	0%	-18%	-2%	?	-21%	?	-7.7%	-14%
